Beta apoptosis = beta cell apoptosis inhibition | 0.8% of 300,000 active | AID 435005 | protection from apoptosis, % (no concentration beside the values) | INS-1E cytokine-induced death, ATP luminescence, 48 h; percent of positive-control rescue, neutral wells zero;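 active means all replicates at 75% or more, or half of them and the mean; inconclusive means half reach 75% but not the mean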;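 further: 0% = cytokine-treated negative control wells and 100% = positive control rescue; higher means more ATP so stronger rescue from cytokine killing; wells of about 40 µL received 100 nL stock; the first replicate is given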
rRNA inh HTS = selective bacterial rRNA inhibition in E. coli. E. coli WT GFP vs humanized-ribosome RFP mutants, fluorescence, 24 h; hits give low values; DMSO median 0, no signal -100. GFP signal change (wild-type ribosome), % (no concentration beside the values). 1.6% of 350,000 active;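 active means significant combined selectivity score with lowered wild-type GFP, culture density cut under 30%, mutant RFP and density less affected; inactive means any of these conditions unmet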; further: one replicate is shown; some compounds called inactive have numbers as strong as hits
T cruzi repl = blocks replication of Trypanosoma cruzi. inhibition, % (test concentration not listed). 1.4% of 300,000 active. T. cruzi beta-gal in NIH3T3, luminescence, 90 h. AID 1885;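 active means mean inhibition across valid replicates above about 55%, limit read from the data; inconclusive means mean below that limit but half or more replicates reach it; inactive means mean below it, under half of replicates reach it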;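 further: signal also drops with host cell toxicity which is not excluded here; 0% = plate median of DMSO wells and 100% = zero luminescence signal; higher percent means less beta-gal luminescence so fewer parasites; stock transfer was 50 nL into about 50 µL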
Calb FLC = C. albicans growth modulation with fluconazole | C. albicans CaCi-2 (fluconazole-resistant clinical isolate) + fluconazole, Alamar Blue growth, 48 h | growth inhibition, % (concentration not given with the values) | 0.57% of 300,000 active | AID 1979;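 active means most replicates above 75%; inconclusive means exactly half above 75%; inactive means most below 75%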;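 further: all wells also contain fluconazole at 8 µg/ml as a sub-toxic cotreatment; 0% = median of DMSO wells and 100% = median of geldanamycin control wells; wells of about 8 µL received 7.5 nL stock; the first replicate is given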
Bfl-1 A1 inh = inhibitors of the anti-apoptotic protein A1, read as caspase activation. MEF A1-2A-BIM cells, Caspase-Glo 3/7 luminescence, 3 h; percent of clofoctol response, vehicle zero. caspase activation, % (concentration not given with the values). 0.066% of 330,000 active. AID 2462;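 active means over half of replicate activation scores above 10%, or exactly half above 10 with the replicate mean above 10; inconclusive means replicate mean below 10 yet half the replicates above 10; inactive means over half of replicates below 10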;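 further: wells of about 30 µL received 50 nL stock; many hits fall short of the cut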
LANA-H2A inh = blocks KSHV LANA binding to histone H2A/H2B. Q9QR71. cell-free LANA-H2A/H2B peptide, fluorescence polarization. inhibition, % (test concentration not listed). 0.6% of 320,000 active; in the data active means inhibition mostly above about 10%, no sharp cut-off; inactive means mostly below about 6.7%;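 further: stock transfer was 7.5 nL into about 10 µL; 0% = median of vehicle wells and 100% = median of positive control wells; one replicate is shown; the record names a cut of 25% in any replicate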
Target sequence (Q9QR71 whole entry, looked up): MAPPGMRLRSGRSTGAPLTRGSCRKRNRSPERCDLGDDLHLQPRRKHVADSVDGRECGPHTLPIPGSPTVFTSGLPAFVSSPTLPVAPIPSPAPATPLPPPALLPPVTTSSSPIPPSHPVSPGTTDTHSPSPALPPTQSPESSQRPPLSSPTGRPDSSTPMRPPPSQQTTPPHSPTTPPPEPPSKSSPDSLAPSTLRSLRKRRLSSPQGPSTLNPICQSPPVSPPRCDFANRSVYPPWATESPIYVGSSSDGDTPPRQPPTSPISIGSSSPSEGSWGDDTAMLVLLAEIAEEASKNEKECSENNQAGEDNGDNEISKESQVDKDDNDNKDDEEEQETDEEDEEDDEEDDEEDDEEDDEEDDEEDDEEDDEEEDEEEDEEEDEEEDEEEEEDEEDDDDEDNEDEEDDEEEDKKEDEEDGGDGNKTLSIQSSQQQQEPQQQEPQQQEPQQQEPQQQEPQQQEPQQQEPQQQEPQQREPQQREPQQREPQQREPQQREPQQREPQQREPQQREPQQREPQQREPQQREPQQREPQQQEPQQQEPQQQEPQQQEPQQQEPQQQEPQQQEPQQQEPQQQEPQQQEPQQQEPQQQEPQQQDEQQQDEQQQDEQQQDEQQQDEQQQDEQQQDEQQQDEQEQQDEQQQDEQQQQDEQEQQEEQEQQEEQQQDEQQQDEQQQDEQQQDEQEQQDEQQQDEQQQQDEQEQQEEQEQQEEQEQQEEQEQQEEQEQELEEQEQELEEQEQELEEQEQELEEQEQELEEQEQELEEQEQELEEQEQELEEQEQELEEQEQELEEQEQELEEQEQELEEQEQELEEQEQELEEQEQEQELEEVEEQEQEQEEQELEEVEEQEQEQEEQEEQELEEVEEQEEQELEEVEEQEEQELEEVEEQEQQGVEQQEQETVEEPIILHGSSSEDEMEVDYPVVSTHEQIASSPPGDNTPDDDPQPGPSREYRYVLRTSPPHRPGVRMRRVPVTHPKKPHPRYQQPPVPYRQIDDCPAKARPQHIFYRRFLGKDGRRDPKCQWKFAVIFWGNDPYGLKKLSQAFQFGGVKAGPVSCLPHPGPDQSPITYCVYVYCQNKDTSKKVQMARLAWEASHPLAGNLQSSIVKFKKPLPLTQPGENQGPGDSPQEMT
B2AR ag = agonists of human beta-2 adrenergic receptor inducing internalization. P07550. Am2.2-beta2AR cells, FAP receptor internalization, flow cytometry; reference of the scale not given here. response, % (test concentration not listed). 0.43% of 340,000 active. AID 504454;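 active means response above a set limit, near 3 SD of response in nonfluorescent compounds, cut at about 42% in these data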;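 further: stock transfer was 100 nL into about 11 µL; a reference agonist was the positive control; negative values mostly stem from fluorescent compounds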
ALR H2O2 inh = inhibitors of human sulfhydryl oxidase ALR | 3.8% of 290,000 active | P55789 | purified ALR, DTT oxidation, H2O2 HRP-luminol luminescence | inhibition, % (no concentration beside the values) | AID 485317;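 active means mean and each replicate at 75% or more; inconclusive means only one of the two met; inactive means neither met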;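 further: stock transfer was 7.5 nL into about 7.5 µL; 0% = neutral wells and 100% = wells with inactivated enzyme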
rRNA inh HTS OD600 = further read-out of rRNA inh HTS, marked with its call; OD600 change, %; measured here: OD600 growth;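 optical density of the mix in the first replicate; 0 = DMSO median and -100 = no signal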
rRNA inh HTS RFP = further read-out of rRNA inh HTS, marked with its call; RFP signal change, %; measured here: RFP humanized mutant strains;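 first replicate; 0 = DMSO median and -100 = no signal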
The depositor's hits bear a star; ? = inconclusive; · = not tested or not shown.

SMILES	Beta apoptosis	rRNA inh HTS	rRNA inh HTS OD600	rRNA inh HTS RFP	T cruzi repl	Calb FLC	Bfl-1 A1 inh	LANA-H2A inh	B2AR ag	ALR H2O2 inh
COc1ccc(/C=C(\C#N)C(=O)NCc2ccccc2)cc1	-6	-5	5	3.5	-5	7	2.1	-2.8	0	-10
CCOC(=O)C(O)(CCC(O)(C(=O)OCC)C(=O)OCC)C(=O)OCC	-6	·	·	·	-6	-2	-0.1	-1.5	-1	0
Cn1c(SCC(=O)OCC(=O)c2ccccc2)nnc1-c1cccs1	5	·	·	·	-2	?	0.6	2.1	-16	6
O=C(CCN1C(=O)CSc2ccccc21)Nc1ccc(C(F)(F)F)cc1	1	-12	-7	-0.6	·	·	0.4	·	-14	-5
CCOc1ccc(N2C(=O)c3ccccc3C2=O)cc1	1	·	·	·	-7	-2	1.2	1.7	-3	0
Cc1ccc(NC(=O)COc2ccc(Br)cn2)cc1	0	10	21	0.1	6	0	0.1	-1.0	-4	-21
COc1ccccc1NC(=O)CCN1CCN(Cc2ccccc2)CC1	-4	2	0	-11	4	9	-0.2	-3.5	10	·
CCc1ncc(CN2CCC(C(=O)Nc3cccc(-c4cscn4)c3)CC2)cn1	-6	0	2	0.8	10	1	0.1	-6.0	-3	1
Cc1ccn2cc(CCNS(=O)(=O)c3ccc(F)c(C(F)(F)F)c3)nc2c1	-4	6	2	-8.7	8	-4	0.2	-3.1	2	-6
COc1ccc(N(C(=O)c2cccnc2)S(=O)(=O)c2ccc(F)cc2)cc1	-7	3	0	1.0	-14	-10	0.1	5.2	1	1
COc1ccc(S(=O)(=O)N(CC(=O)N2CCCCCC2)c2ccccc2OC)cc1	0	-5	-11	6.2	4	4	-1.1	-2.2	8	·
CC(=O)c1sc(NS(=O)(=O)c2ccc(C)cc2)nc1C	·	-4	-10	-7.3	11	-10	0.1	6.0	-1	-5
Cc1ccc(N(Cc2cc3ccc(C)cc3[nH]c2=O)S(=O)(=O)c2ccccc2)c(C)c1	0	16	14	-0.7	24	-2	0.3	3.0	-23	-5
COc1ccc(C2Nc3ccccc3C(=O)N2NS(C)(=O)=O)cc1OC (stereo not drawn)	·	10	14	-2.2	-6	41	0.5	8.0	-1	-12
Cc1cc2ccccn2c1C(=O)c1cccc(S(=O)(=O)N2CCOCC2)c1	-3	-23*	-17*	2.8*	13	-14	-0.4	-207	-9	-1
O=C(COC(=O)Cc1ccccc1F)Nc1ccc(Cl)cn1	-2	-18*	-1.2*	3.8*	-11	-13	-0.1	4.1	5	0
CCOc1ccccc1NC(=O)COC(=O)C1CCC1	-8	8	-8	-1.4	3	-21	0.6	-6.5	1	·
Cn1ccnc1C(OC(=O)c1ccc(Cl)cc1)C(F)(F)F (stereo not drawn)	-4	12	24	21	19	-16	-0.3	1.4	1	-33
CCN(CC)C(=S)Nc1cc(C(=O)OC)ccc1C(=O)OC	1	·	·	·	-6	-3	-0.1	-2.6	2	0
CC(C)(C)N(Cc1ccccc1)C(=O)COC(=O)CCc1c[nH]c2ccccc12	-11	·	·	·	-8	-2	-1.0	-5.9	-1	·
CCOC(=O)C1=C(C(F)(F)F)Nc2ncnn2C1c1ccc(OC)cc1OC (stereo not drawn)	-10	·	·	·	-15	10	-0.2	3.8	4	0
CC(N)C(=O)NC(C(=O)N1CCCC1C(=O)NC(c1ccccc1)c1ccccc1)C(C)C (stereo not drawn)	4	7	6	3.0	·	·	0.0	5.1	2	-8
COc1ccc(NC(=S)N(Cc2ccc(C)cc2)Cc2ccccn2)cc1	0	7	3	-2.5	77*	-5	0.9	·	0	·
O=C(Nc1ncccc1O)c1ccc2c(c1)OCCO2	·	2	8	-3.5	-9	0	-1.7	1.1	0	-2
Cc1cc(C)cc(N2C(=O)CSC2c2ccccn2)c1 (stereo not drawn)	-1	8	0	1.7	3	-28	0.1	1.5	0	99*
CCn1ccnc1CNCc1cn(-c2cc(C)ccc2C)nc1-c1ccccc1	20	-4	-11	2.8	8	-19	-0.2	-3.8	-11	·
O=[N+]([O-])c1ccc(C2=Nn3c(Cn4nnc5ccccc54)nnc3SC2)cc1	-2	11	5	0.6	38	-5	-0.4	5.7	-5	·
CCC1Sc2ccccc2N(CC(=O)NC2CCCCC2)C1=O (stereo not drawn)	-5	6	9	0.5	-2	0	1.0	-0.2	1	60
CCCCOc1ccc(-c2ncc(C(=O)O)c(C)n2)cc1	2	·	·	·	3	3	-5.1	-2.9	3	0
CC(C)(C)NC(=O)Cn1c(=O)oc2ccc(Cl)cc21	-2	14	8	0.8	-6	-7	-0.5	-5.5	-1	·
Cc1ccc(NC(=O)C2CCCN(C(=O)Nc3ccc(F)cc3)C2)cc1 (stereo not drawn)	3	-11	-17	-1.4	-10	-3	-0.1	0.7	1	0
CCOc1cccc2cc(C(=O)NCc3cccnc3)c(=O)oc12	-8	·	·	·	-4	-24	-0.7	-2.8	-1	-8
COc1ccc(Cl)cc1NC(=O)CSC1=NN2CCCC(=O)N=C2S1	6	3	-15	-1.4	-17	-5	-0.2	-7.3	-17	·
Cc1ccc(C2CC(c3ccc(Cl)cc3)n3nc(N)nc3N2)cc1 (stereo not drawn)	0	-7	-9	1.1	21	6	0.1	1.1	-3	·
CC1CN(c2ccc(Oc3ccccc3)cc2)c2nc3c(c(=O)n(CC(N)=O)c(=O)n3C)n2C1 (stereo not drawn)	-8	11	5	0.8	-3	-2	0.1	-2.2	-19	-2
CCN(CC)C(=O)CN(Cc1ccccc1)S(=O)(=O)c1ccc(F)cc1	-1	·	·	·	-13	-6	1.2	-0.8	-1	-14
NC(=O)c1c(NC(=O)c2ccco2)sc2c1CCC2	-8	·	·	·	-12	92*	-2.6	2.7	-14	-16
O=C1S/C(=C\c2ccccc2)C(=O)N1CC(O)Cn1c2ccccc2c2ccccc21 (stereo not drawn)	-1	·	·	·	58*	-1	0.3	-3.0	1	·
Cc1nn(Cc2c(Cl)cccc2Cl)c(C)c1NC(=O)c1cn(-c2ccccc2)nc1-c1ccccc1	106*	·	·	·	42	2	13*	-8.4	9	-13
CCOC(=O)CCCNC(=O)c1cncc(Br)c1	2	·	·	·	-38	-11	1.9	1.9	4	-3
COC(=O)N/N=C/c1ccc(-c2ccccc2Cl)o1	6	-1	1	-1.2	23	-1	0.7	-0.3	-4	-4
Cc1ccc(/C=C(/NC(=O)c2ccccc2)C(=O)NC(Cc2c[nH]c3ccccc23)C(=O)O)cc1 (stereo not drawn)	·	-3	-6	-0.1	-13	-2	-0.4	-6.9	-3	24
COCCCNC(=O)CCn1nc(-c2ccc(Cl)cc2)ccc1=O	0	-1	-3	1.2	-5	3	1.1	0.3	10	10
COc1ccc(CCNc2nc(-c3ccncc3)cs2)cc1OC	-2	-27*	-8.9*	-2.8*	33	-15	-0.2	2.7	2	2
Cc1ccc(-n2nnnc2CNC(=O)c2ccc([N+](=O)[O-])o2)cc1C	-23	-20*	2.7*	-4.8*	57*	36	0.4	5.7	-1	-24

The last two compounds of the part before open the next one.
SMILES	Beta apoptosis	rRNA inh HTS	rRNA inh HTS OD600	rRNA inh HTS RFP	T cruzi repl	Calb FLC	Bfl-1 A1 inh	LANA-H2A inh	B2AR ag	ALR H2O2 inh
COc1ccc(CCNc2nc(-c3ccncc3)cs2)cc1OC	-2	-27*	-8.9*	-2.8*	33	-15	-0.2	2.7	2	2
Cc1ccc(-n2nnnc2CNC(=O)c2ccc([N+](=O)[O-])o2)cc1C	-23	-20*	2.7*	-4.8*	57*	36	0.4	5.7	-1	-24
CCOC(=O)CSC1=Nc2ccccc2C2=NC(CC(=O)NCc3cccs3)C(=O)N12 (stereo not drawn)	-12	·	·	·	3	20	0.1	2.6	2	-12
COc1ccc(CCNC(=O)c2ccc([N+](=O)[O-])cc2)cc1	-4	5	-4	-0.5	2	-5	-0.2	-5.1	-3	-6
O=C1OC(Nc2nccs2)c2ccccc21 (stereo not drawn)	1	·	·	·	-2	-2	1.2	0.3	2	23
CC(CCc1ccccc1)NC(=O)COC(=O)c1cc(NS(=O)(=O)c2ccc(Cl)c([N+](=O)[O-])c2)ccc1O (stereo not drawn)	·	·	·	·	-8	10	0.8	-0.2	7	38
CCCNC(=O)COC(=O)c1ccc(-c2ccccc2)cc1	-1	-9	-4	-9.1	-4	8	-0.8	-1.2	-7	-3
CCN(CC)S(=O)(=O)c1ccc(NS(=O)(=O)c2cccs2)cc1	-3	-12	-18	-7.6	6	25	-0.3	1.4	-5	-4
Cc1cc(C)nc(Sc2nc(Nc3ccccc3)nc(Sc3nc(C)cc(C)n3)n2)n1	-23	·	·	·	-25	2	-0.5	-1.0	4	·
COc1ccc2c(c1)C(C)=CC(C)(C)N2C(=O)CSc1nnc(-c2ccc(C)cc2)o1	·	·	·	·	18	2	-0.2	0.1	6	-14
COc1ccc(COC(=O)C2CCN(S(=O)(=O)c3ccc(C)cc3)CC2)cc1	1	-3	-8	3.7	-7	8	1.3	-1.9	2	-6
Cc1cc(C)nc(NC(=NCCc2c[nH]c3ccccc23)NC(=O)c2ccco2)n1	10	·	·	·	28	-5	0.1	2.9	8	4
CCN(CC)C(=O)CSc1nc2sc3c(c2c(=O)n1-c1ccc(C)cc1)CC(C)(C)SC3	5	·	·	·	11	33	0.9	0.3	-5	-3
Fc1ccc2nc3c(nc2c1)CCCC3	-2	2	6	-0.2	-7	1	0.1	-2.0	5	-8
NS(=O)(=O)c1ccc(CCNS(=O)(=O)c2cccc3nsnc23)cc1	0	10	17	1.0	-7	-8	0.1	-2.3	8	·
N#Cc1ccc(CSc2nnc(-c3cccnc3)n2-c2ccccc2)cc1	-1	·	·	·	34	10	0.2	-1.7	-10	2
CCCCc1cc(=O)oc2cc(OC(C)C(=O)NCCN3CCOCC3)c(Cl)cc12 (stereo not drawn)	6	-2	-9	2.3	-8	-7	0.7	2.5	-2	1
COc1ccc(CCN(C)C(=O)CNC(=O)c2ccccc2F)cc1OC	-6	-4	-3	-1.0	-4	-2	-0.3	-5.4	1	-3
C=CCN1C(=O)/C(=C/c2cccs2)S/C1=N\S(=O)(=O)c1ccc(F)cc1	2	16	14	-0.8	-10	5	0.2	4.3	6	-4
COc1ccc(OCC#CCn2ccnc2)cc1	-3	7	6	-0.9	-6	4	0.2	-1.4	9	-1
O=C(O)c1cccc(NC(=O)c2cc(-c3cccc(Cl)c3)nc3ccccc23)c1	1	-39	-50	-8.7	-6	2	-0.3	3.7	3	99*
O=c1sc2ccccc2c(N2CCCCC2)c1[N+](=O)[O-]	-10	5	1	-0.8	0	-17	-3.9	2.2	-1	-1
COC(=O)c1c(NC(=O)C(=O)N2CCCC2)sc2c1CC(C)(C)OC2	4	0	5	-0.4	0	0	-0.4	5.6	-22	0
O=[N+]([O-])c1ccc(-c2cn(-c3ccc(Cl)cc3)c(=S)[nH]2)cc1	-4	·	·	·	8	5	-0.2	-258	3	-3
CN(C)S(=O)(=O)c1cccc(COC(=O)Cc2c(F)cccc2Cl)c1	-5	-23	-40	-6.8	6	15	0.8	0.0	-6	-15

An excerpt; the hit share may differ from the screen's.
